Rango-impB inh: qHTS Assay for Inhibitors of Rango (Ran-regulated importin-beta cargo) - Importin beta complex formation; Rango CFP/YFP FRET sensor + importin beta, 45 min; Potency, µM (top dose mostly 92.2 µM), for the others: at the top dose inhibition of complex formation; 0.031% of 340,000 active; AID 540263, 2011; active = rising FRET ratio curve, often small or poorly fitted; inconclusive = mostly compound fluorescence or quenching in the first reads; inactive = flat curves in all reads;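 also: potency is read from the fitted curve at half-maximal effect; 0% = DMSO wells and 100% = buffer wells lacking importin beta; nearly all actives have a fitted effect of over 15% in size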
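FRET biosensor (snurportin 1 IBB flanked by EYFP and cerulean), 50 nM, with compound 5 min, then 0.125 microM importin beta in PBS, 1 mM DTT, 0.02% Tween-20, 0.1% BSA. CFP/YFP ratio read after 45 min at room temperature; pre-read flags interference.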
Rango dissoc inh: qHTS Assay for Inhibitors of RanGTP induced Rango (Ran-regulated importin-beta cargo) - Importin beta complex dissociation; AID 540253, 2011; Biochemical FRET Rango-importin beta, RanGTP-induced dissociation; 0.071% of 340,000 active; Potency, µM (highest dose often 46.1 µM), without a hit: at the top dose activity change, negative = inhibition; active means falling FRET ratio curve, often poorly fitted, with flat reads before Ran was added; inconclusive means other falling curves, or compound fluorescence or quenching; inactive means flat or rising ratio curve;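 also: potency is read from the fitted curve at half-maximal effect; % of control where 0% means no effect; nearly all actives have a fitted effect of over 45% in size; -100% = wells without RanGTP and RCC1; the record marks most hits as doubtful in a second field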
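Rango FRET biosensor (snurportin-1 IBB flanked by N-terminal EYFP and C-terminal CFP10) at 0.1 uM, with 0.25 uM importin beta in PBS, 1mM DTT, 0.02% Tween-20, 0.1% BSA. 0.6 uM Ran, 2mM GTP and 0.2 uM RCC1 were then added for 45 min at room temperature. Inhibition read as loss of FRET rise.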
miR-21 reporter: qHTS Assay for Modulators of miRNAs and/orActivators of miR-21; HeLa miR-21 FLuc reporter, luciferase, 48 h; Potency, µM (doses to about 38.3 µM), without a hit: at the top dose reporter change, positive = more light; 340,000 tested, under 10 active; AID 2288, 2010; active = well fitted rising curve with a large enough effect; inconclusive = small, poorly fitted or top-dose-only effect; inactive = no such curve, though single readings can be large or run the other way;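 also: % of control where 0% means no effect; miR-21 action dims this reporter so a rising signal means less miR-21 action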
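Compounds were titrated across several concentrations (up to approximately 40 uM) and incubated 48 hours with HeLa miR-21-FLuc reporter cells (miR-21 target sequence downstream of FLuc, endogenous miR-21). Readout was firefly luciferase luminescence after lytic detection reagent.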
GLA inh pH 4.5: qHTS Assay for Inhibitors of Human alpha-Galactosidase at pH 4.5 | 230,000 tested, under 10 active | purified enzyme, 4-MU-alpha-Gal fluorescence, pH 4.5 | Alpha-galactosidase A (Homo sapiens), P06280 | activity change, negative = inhibition, % at 105 µM; inconclusive = small, poorly fitted or top-dose-only inhibition, or a rising curve; inactive = flat fitted curve, though single readings scatter; no compound was filed as active;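 also: 0% = full activity with enzyme and -100% = basal without enzyme; dose as in the result columns while the protocol names 77 µM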
Target sequence (P06280 whole entry, looked up): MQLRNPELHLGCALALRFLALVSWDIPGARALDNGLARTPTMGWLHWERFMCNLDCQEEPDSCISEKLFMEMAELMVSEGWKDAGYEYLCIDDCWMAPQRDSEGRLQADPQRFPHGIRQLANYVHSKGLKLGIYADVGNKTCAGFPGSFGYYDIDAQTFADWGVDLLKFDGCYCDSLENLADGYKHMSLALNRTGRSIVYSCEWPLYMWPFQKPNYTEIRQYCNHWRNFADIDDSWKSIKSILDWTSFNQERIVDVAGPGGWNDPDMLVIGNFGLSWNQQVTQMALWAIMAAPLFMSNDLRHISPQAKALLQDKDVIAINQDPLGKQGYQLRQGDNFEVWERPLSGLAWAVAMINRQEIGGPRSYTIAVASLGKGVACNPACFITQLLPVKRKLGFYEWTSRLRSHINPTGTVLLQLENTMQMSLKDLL
Active calls of the source: *; ? = inconclusive; . = not tested or not shown; & = joins results of further samples.

Rango-impB inh	Rango dissoc inh	miR-21 reporter	GLA inh pH 4.5	Molecule
-2.0%	-12%	-10%	-5	C[C@H]([C@@H](N)C(=O)N[C@@H](C(=O)O)[C@@H]1O[C@H](n2ccc(=O)[nH]c2=O)[C@@H](O)[C@H]1O)[C@@H](O)c1ccc(O)cn1
-2.3%	2%	0%	.	COc1cc(/C=N/NC(=O)CNC(=O)c2ccncc2)ccc1OC(C)=O
-5.9%	15%	-7%	.	Cc1cc(NC(=O)c2ccccc2)n(C)n1
-0.6%	5%	-4%	.	COc1ccc(-c2ccc(NS(=O)(=O)c3ccc([N+](=O)[O-])cc3)cc2)nn1
-0.5%	-6%	3%	.	COc1cc(C(=O)NCC(=O)N/N=C/c2ccc(-c3cccc([N+](=O)[O-])c3)o2)cc(OC)c1OC
0.9%	2%	-10%	-4	Cc1onc(-c2ccccc2)c1C(=O)NC(=S)Nc1sc2c(c1C#N)CCCC2
-0.3%	15%	-2%	.	Cn1c(=O)c2c(ncn2CC(=O)NC2CCCCC2)n(C)c1=O
-0.3%	22%	2%	-7	COc1cccc2c(=O)n(CC(=O)N3CCCc4ccccc43)ccc12
0.0%	24%	-40%	.	Cn1c(CNc2ccc(Br)cc2)nc2ccccc21
0.3%	-1%	0%	-1	O=c1oc2ccccc2c(N2CCCC2)c1[N+](=O)[O-]
-0.9%	-6%	-6%	8	CCC(CC)NC(=O)c1cc(OC)c(OC)c(OC)c1
1.5%	11%	-29%	.	Cc1cc(Br)ccc1NC(=O)c1ccco1
-5.3%	1%	-8%	-7	CCOC(=O)c1cnn(-c2cc(Oc3ccccc3)ncn2)c1N
?	-11%	-8%	-1	Nc1nnc(-c2cccc([N+](=O)[O-])c2)s1
-5.6%	42%	0%	1	O=C(CN(Cc1cccs1)C(=O)CNS(=O)(=O)c1ccc(Cl)cc1)NCC1CCCO1 (stereo not drawn)
3.8%	0%	.	.	CN(CCN(C)C(=O)c1[nH]cnc1C(=O)Nc1ccccc1)C(=O)c1[nH]cnc1C(=O)Nc1ccccc1
1.0%	-5%	0%	.	CC(=O)NCCc1nc2cc(NS(=O)(=O)c3ccccc3)ccc2n1C
3.7%	-16%	.	.	O=C(Nc1ccc2nc(N3CCOCC3)sc2c1)c1ccc(F)cc1
2.6%	7%	2%	.	CCCn1cnnc1CNC(=O)C1CCC(=O)N(CCc2ccc(OC)cc2)C1 (stereo not drawn)
?	1%	-1%	.	COc1ccc(S(=O)(=O)N2CCC(C(=O)N[C@H](C(=O)NCc3ccncc3)C(C)C)CC2)cc1
?	?	10%	3	Cc1cccn2c(=O)c3cc(C(=O)NCCc4ccccc4)c(=N)n(CCCn4ccnc4)c3nc12
-2.9%	17%	.	.	O=C(Nc1ccccn1)C1CCN(C(=O)Nc2ccccc2)CC1
-0.4%	18%	-4%	8	Cn1c(=O)[nH]c(=O)c2c1nc(SCCN1CCCCC1)n2CCCc1ccccc1
3.6%	-8%	-4%	0	CC1CCCCN1C(=O)c1ccc(S(=O)(=O)N2CCCCC2C)cc1 (stereo not drawn)
2.7%	-10%	3%	3	CN(C)C(=O)N1CCC(C(=O)N2CCCC(C(=O)c3cccc4ccccc34)C2)CC1 (stereo not drawn)
0.9%	-4%	-19%	7	CCn1c2ccccc2c2cc(NC(=O)COC(=O)c3ccccc3Br)ccc21
0.7%	-4%	-10%	2	COc1ccc(CCN2C(=O)CC(NNC(=O)c3cccc(O)c3)C2=O)cc1 (stereo not drawn)
?	-2%	.	.	O=C1C=C(c2ccnc3cc(Cl)ccc23)C[C@@H](c2ccc3c(c2)OCO3)C1
?	?	0%	10	CCCC1OC23CCCCC2C(C#N)(C(=N)O3)C1(C#N)C#N (stereo not drawn)
2.4%	1%	0%	.	O=C(COC(=O)/C=C/c1ccc(C(F)(F)F)cc1)NCCC1=CCCCC1

Retrieved one by one from the entries so far (2):
Rango-impB inh	Rango dissoc inh	miR-21 reporter	GLA inh pH 4.5	Molecule
-0.9%	-6%	-6%	8	CCC(CC)NC(=O)c1cc(OC)c(OC)c(OC)c1
1.5%	11%	-29%	.	Cc1cc(Br)ccc1NC(=O)c1ccco1

The list continues:
Rango-impB inh	Rango dissoc inh	miR-21 reporter	GLA inh pH 4.5	Molecule
2.8%	-1%	-6%	-2	O=C1CC(Cc2ccc(Cl)cc2)C(=O)N1c1ccccn1 (stereo not drawn)
-3.2%	0%	1%	-2	Cc1cccc(C(=O)Nc2cc(C)ccc2NC(=O)COc2ccccc2)c1
4.3%	5%	.	.	O=S(=O)(c1ccc2c(c1)OCCO2)N1CCCN(S(=O)(=O)c2c(F)cccc2F)CC1
0.6%	1%	2%	.	CC(=O)N1CCN(C2=NC(=O)/C(=C/c3ccc(OS(=O)(=O)c4ccccc4)cc3)S2)CC1
-0.6%	-3%	-10%	-1	CCCCNC(=O)Cn1c2c(c(-c3ccccc3Cl)cc1=O)CCC2
-1.9%	13%	?	.	CCOC(=O)c1c(-c2ccccc2)oc2ccc(OCC(O)CNCCN(C)C)cc12 (stereo not drawn)
1.9%	-23%	-24%	0	O=C(Nc1ccc(Cl)cc1)NC1CCCCNC1=O (stereo not drawn)
0.3%	8%	-1%	-7	CC(C)C(C)NC(=O)CSc1nnc(-c2c[nH]c3ccccc23)o1 (stereo not drawn)
0.6%	0%	-5%	2	CCN(CC)CCNC(=O)Cn1nc(-c2ccc(C)cc2)ccc1=O
-0.4%	7%	-67%&-61%	-4	Cc1ccc(-c2cc(N)n(-c3ccc(C)cc3)n2)cc1
-0.6%	23%	?	0	CCNC(=S)N(CCc1c(C)[nH]c2ccc(C)cc12)Cc1cccs1
2.2%	11%	7%	-22	O=C(Nc1nccs1)C1CC(=O)N(c2ccccc2Cl)C1 (stereo not drawn)
2.9%	15%	1%	.	CCOC(=O)C1CCCN(S(=O)(=O)c2nc3nc(C)cc(C)n3n2)C1 (stereo not drawn)
-0.7%	-11%	-1%	2	COC(=O)c1sccc1NC(=S)Nc1ccc(F)cc1
.	.	0%	1	O=C(NC1CCCCC1)C(=O)N(Cc1cccnc1)C(C(=O)NCc1ccco1)c1ccccc1 (stereo not drawn)
-2.1%	5%	-5%	2	C=CCc1cc(Cl)ccc1OCCN(C)C
-0.1%	-3%	.	.	COC(=O)[C@]12C(=O)NC[C@H](CN1c1ccc(C(F)(F)F)cc1)N2C
-0.2%	3%	10%	4	Cc1cc(C)nc(N/N=C/C2=C(O)CC(c3ccc(F)cc3)CC2=O)n1 (stereo not drawn)
6.5%	8%	6%	0	CC1(c2ccc(Cl)cc2)NC(=O)N(CC(=O)N2CCCC2)C1=O (stereo not drawn)
-0.9%	18%	-6%	-12	CC(C)n1c(SCC(=O)Nc2ccccc2)nc2c1c(=O)[nH]c(=O)n2C
0.4%	-7%	-37%	.	CC1CCCC(C)N1C(=O)c1cc(-c2ccco2)on1 (stereo not drawn)
0.4%	-10%	-5%	7	CCOC(=O)CC(=O)CSc1ccc2nnc(-c3cccc(F)c3)n2n1
-0.2%	1%	.	.	CC(C)CNC(=O)c1cc2nc(C3CC3)cc(C(F)(F)F)n2n1
.	.	8%	-4	CCOC(=O)c1cccc(NC(=O)Cn2c(CC(=O)N3CCCC3)nc3ccccc32)c1
3.0%	-1%	6%	-6	OCC1OC(n2nnc3ccccc32)C(O)C(O)C1O (stereo not drawn)
3.0%	7%	0%	7	O=C(NCC1CCCO1)c1ccc2c(=O)n(CC3CCCO3)c(=S)[nH]c2c1 (stereo not drawn)
1.3%	24%	-29%	.	COc1cc(NC(=O)c2ccccc2)c(C)cc1NC(=O)CC(CC(=O)O)c1ccccc1 (stereo not drawn)
-1.6%	18%	-1%	.	COc1ccc(CCNC(=O)C(=O)NCC2OCCN2S(=O)(=O)c2ccc3c(c2)OCCO3)cc1 (stereo not drawn)
2.1%	-1%	-8%	-5	O=C(Cc1ccc(Br)cc1)Nc1ccccc1Sc1ccccc1
-3.4%	9%	.	.	CCCN(C(=O)CSc1nc(C2CC2)n(-c2ccccc2)n1)C1CCS(=O)(=O)C1 (stereo not drawn)
?	?	-3%	-4	CC1(C)Cc2c(c(-c3ccco3)[nH]c(=O)c2C#N)CO1
.	.	0%	-1	O=C(CNC(=O)c1cccs1)NCCN1CCC(Cc2ccccc2)CC1
4.0%	-11%	0%	-2	COCCCN1C(=O)c2ccc(C(=O)NCc3ccco3)cc2C1=O
?	22%	-15%	.	Cc1cccc(NC(=O)c2ccco2)c1C
1.3%	-3%	-11%	9	Cc1ccc2cc(CCNC(=O)C(C)C)c(=O)[nH]c2c1C
?	?	-1%	0	COC(=O)c1ccc(-c2sc3nc(N4CCOCC4)c4c(c3c2N)CC(C)(C)OC4)o1
-3.7%	-1%	-2%	-1	O=C(COC(=O)CN=C1NS(=O)(=O)c2ccccc21)Nc1ccccc1OC(F)F
7.1%	-1%	-2%	-5	CC1(O)N(Cc2ccccc2)C(=O)OC12CCCCC2 (stereo not drawn)
0.1%	1%	?	3	CCCCn1c(CN(C)Cc2ccccc2)nc2c1c(=O)n(C)c(=O)n2C
4.5%	-10%	-6%	8	O=C(COC(=O)C1CCC(=O)N1)Nc1cc(Cl)ccc1Cl (stereo not drawn)
4.1%	-10%	-35%	.	CCc1cc(C(=O)NC(C)C2CCCO2)cs1 (stereo not drawn)
3.3%	-9%	0%	0	CC(=O)c1c(C)nc(-c2ccc(OCC(=O)Nc3ccc(F)cc3)cc2)n1O
-3.9%	-2%	-10%	.	Cc1cccc(C(=O)NNC(=O)C23CC4CC(CC(C4)C2)C3)c1O
1.5%	-7%	.	.	Cc1c(N)cccc1N
0.2%	-21%	-1%	4	CCCc1nc(SCC(=O)Nc2nnc(SCC)s2)c2c(=O)n(C)c(=O)n(C)c2n1
2.5%	12%	-2%	.	Cc1cc(C)cc(N(CC(=O)NC2CCCC2)C(=O)CCC(=O)Nc2cc(C)on2)c1
-4.1%	11%	4%	-7	C/C(CC(=O)C(F)(F)F)=N\NC(=O)/C(C#N)=C/N(C)C
1.3%	-14%	-1%	-4	C=CCn1c(SCC#N)nc2c(c1=O)C(C)(C)Cc1ccccc1-2
0.1%	20%	-1%	4	CCOC(=O)c1c[nH][nH]c1=O
0.4%	-21%	-2%	.	CCOc1ccc(N2CC(C(=O)Nc3ccc(S(=O)(=O)Nc4nccs4)cc3)CC2=O)cc1 (stereo not drawn)
-1.5%	2%	1%	-9	Cc1ccc(NC(=O)CSc2nnc(CNC(=O)c3cccs3)o2)c(C)c1
5.2%	1%	-14%	2	CS(=O)(=O)c1nc(-c2ccc(Br)cc2)n[nH]1
0.5%	-23%	-8%	-9	CCCN(CCC)CCCNC(=O)c1cc2c(=O)n(C)c3ccccc3c2n1C
-0.1%	-14%	-8%	.	COc1ccc(NC(=O)O/N=C/c2ccc(Br)cc2)cc1
1.9%	0%	0%	-6	Cc1cccc(OC(=O)Cn2c(C(F)(F)F)nc3ccccc32)c1
7.6%	13%	-9%	2	CC1CN(C(=O)c2ccc(COCC(F)(F)F)o2)CC(C)O1 (stereo not drawn)
0.8%	-13%	-3%	.	C#Cc1ccc(CN2CCN(CCc3ccccc3)C(CCO)C2)cc1 (stereo not drawn)

Individual results from above.
In Rango-impB inh, `CN(CCN(C)C(=O)c1[nH]cnc1C(=O)Nc1ccccc1)C(=O)c1[nH]cnc1C(=O)Nc1ccccc1` reads 3.8%
In GLA inh pH 4.5, `CC(=O)c1c(C)nc(-c2ccc(OCC(=O)Nc3ccc(F)cc3)cc2)n1O` reads 0
In Rango-impB inh, `CCCCNC(=O)Cn1c2c(c(-c3ccccc3Cl)cc1=O)CCC2` reads -0.6%
In Rango dissoc inh, `CC1CCCC(C)N1C(=O)c1cc(-c2ccco2)on1` (stereo not drawn) reads -7%

Only part of the results is shown; the hit share may differ from the screen's.
